Screening data (PubChem BioAssay)
Rango dissoc inh: qHTS Assay for Inhibitors of RanGTP induced Rango (Ran-regulated importin-beta cargo) - Importin beta complex dissociation; Snurportin-1 (Homo sapiens) + GTP-binding nuclear protein Ran (Homo sapiens) + Importin …; Biochemical FRET Rango-importin beta, RanGTP-induced dissociation; Potency, µM (highest dose often 46.1 µM), inactives show top-dose activity change, negative = inhibition; hit rate 0.071% among 340,000; AID 540253, 2011; active means falling FRET ratio curve, often poorly fitted, with flat reads before Ran was added; inconclusive means other falling curves, or compound fluorescence or quenching; inactive means flat or rising ratio curve;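 also: potency is read from the fitted curve at half-maximal effect; % of control where 0% means no effect; nearly all actives have a fitted effect of over 45% in size; -100% = wells without RanGTP and RCC1; the record marks most hits as doubtful in a second field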
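Rango/importin beta premix (0.1/0.25 uM final), PBS + 1 mM DTT + 0.02% Tween-20 + 0.1% BSA; cpd 5 min RT; FRET pre-read; + RanGTP-RCC1 (0.6 uM Ran, 2 mM GTP, 0.2 uM RCC1); 45 min RT; FRET post-read, ex 430, em 486/530 nm.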
GLA inh pH 4.5: qHTS Assay for Inhibitors of Human alpha-Galactosidase at pH 4.5. Alpha-galactosidase A (Homo sapiens), P06280. purified enzyme, 4-MU-alpha-Gal fluorescence, pH 4.5. activity change, negative = inhibition, % at 105 µM. 230,000 tested, under 10 active. AID 1467, 2008; inconclusive = small, poorly fitted or top-dose-only inhibition, or a rising curve; inactive = flat fitted curve, though single readings scatter; no compound was filed as active;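 also: 0% = full activity with enzyme and -100% = basal without enzyme; dose as in the result columns while the protocol names 77 µM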
Rango complex inh: qHTS Assay for Inhibitors of Rango (Ran-regulated importin-beta cargo) - Importin beta complex formation; Importin subunit beta-1 (Homo sapiens), Q14974; Rango CFP/YFP FRET sensor + importin beta, 45 min; Potency, µM (series often up to 92.2 µM), for the others: top-dose inhibition of complex formation; hit rate 0.031% among 340,000; AID 540263, 2011; active = rising FRET ratio curve, often small or poorly fitted; inconclusive = mostly compound fluorescence or quenching in the first reads; inactive = flat curves in all reads;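 also: potency is read from the fitted curve at half-maximal effect; 0% = DMSO wells and 100% = buffer wells lacking importin beta; nearly all actives have a fitted effect of over 15% in size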
Target sequence (Q14974 whole entry, looked up): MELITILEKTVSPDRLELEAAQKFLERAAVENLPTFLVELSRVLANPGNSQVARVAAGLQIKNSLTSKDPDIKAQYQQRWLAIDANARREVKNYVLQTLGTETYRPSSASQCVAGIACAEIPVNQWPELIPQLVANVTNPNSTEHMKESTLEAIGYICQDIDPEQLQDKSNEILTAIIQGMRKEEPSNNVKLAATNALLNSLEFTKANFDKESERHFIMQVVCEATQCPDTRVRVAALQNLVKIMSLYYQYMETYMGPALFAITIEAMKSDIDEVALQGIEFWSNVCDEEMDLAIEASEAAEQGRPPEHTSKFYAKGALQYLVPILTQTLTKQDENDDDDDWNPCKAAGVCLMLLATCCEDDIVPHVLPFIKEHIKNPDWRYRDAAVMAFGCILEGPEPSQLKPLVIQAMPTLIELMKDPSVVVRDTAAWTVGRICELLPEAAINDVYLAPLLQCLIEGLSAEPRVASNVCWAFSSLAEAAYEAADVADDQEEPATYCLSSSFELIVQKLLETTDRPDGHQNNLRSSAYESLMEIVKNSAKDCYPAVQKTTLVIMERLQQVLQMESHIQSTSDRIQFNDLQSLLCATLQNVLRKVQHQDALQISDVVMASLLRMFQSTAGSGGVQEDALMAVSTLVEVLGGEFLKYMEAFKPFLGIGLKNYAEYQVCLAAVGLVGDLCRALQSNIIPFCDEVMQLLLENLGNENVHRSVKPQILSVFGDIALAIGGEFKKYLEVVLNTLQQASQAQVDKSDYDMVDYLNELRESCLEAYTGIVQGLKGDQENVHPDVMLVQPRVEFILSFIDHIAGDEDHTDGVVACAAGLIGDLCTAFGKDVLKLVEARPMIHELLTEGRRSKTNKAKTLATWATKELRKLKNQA
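FRET biosensor Rango (snurportin 1 IBB between N-terminal EYFP and C-terminal Cerulean), 50 nM in PBS/1 mM DTT/0.02% Tween-20/0.1% BSA, preincubated 5 min RT with compound; 0.125 microM importin beta added, 45 min RT, CFP/YFP FRET ratio read.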
miR-21 FLuc: qHTS Assay for Modulators of miRNAs and/orActivators of miR-21; Potency, µM (doses to about 38.3 µM), for the others: at the highest dose reporter change, positive = more light; 340,000 tested, under 10 active; AID 2288, 2010; HeLa miR-21 FLuc reporter, luciferase, 48 h; active = well fitted rising curve with a large enough effect; inconclusive = small, poorly fitted or top-dose-only effect; inactive = no such curve, though single readings can be large or run the other way;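 also: % of control where 0% means no effect; miR-21 action dims this reporter so a rising signal means less miR-21 action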
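HeLa cells endogenously expressing miR-21, stably carrying CMV-driven firefly luciferase with a downstream miR-21 binding site, 2000 cells/well. Titrations up to approximately 40 uM, 48 hours; luciferase luminescence read.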
* = called active by the depositor; ? = inconclusive; . = no result given; & = joins results of further samples; [ ] = another dose, or the depositor's remark. Not all compounds are listed; count on the stated rates, not on these rows.

SMILES	Rango dissoc inh	GLA inh pH 4.5	Rango complex inh	miR-21 FLuc
O=C(Nc1ccc(Br)cc1)N1CCCCCC1	-4%	.	2.4%	-55%
COc1ccccc1Nc1ncc(C(C)=O)c(C)n1	9%	0	3.3%	-54%
CN(CCc1ccccn1)C(=O)c1ccc(OC(F)(F)F)cc1	-7%	-5	5.1%	-20%
NC(=O)c1nsc(C(=O)N(c2cccc(F)c2)C(C(=O)NCc2ccccc2)c2ccc(O)cc2)c1N (centres undefined)	3%	.	?	2%
O=Cc1ccc(OC2OCCOC2Oc2ccc(C=O)cc2)cc1 (centres undefined)	2%	-8	-0.3%	-1%
COc1cccc(Nc2nc(-c3sc(N)nc3C)cs2)c1	-30%	-2	-1.9%	-29%
COc1ccc(Cc2nnc(N/N=C/c3ccc(Br)cc3)[nH]c2=O)cc1OC	5%	3	2.6%	-3%
CCOC(=O)CC(NC(=O)CCc1c(C)nc2ncnn2c1C)c1ccc(OC(C)C)cc1 (centres undefined)	5%	-13[21.1 µM]	3.1%	-1%&3%
O=C(NCc1ccccc1)C1=C[C@@H](C2CCCCC2)C[C@@H](OCc2ccc(CO)cc2)O1	1%	-8	4.5%	12%
Cc1c(NS(=O)(=O)c2cccs2)cccc1-c1nc2cccnc2s1	3%	3	-1.0%	-13%
O=C(COC(=O)c1ccccc1Oc1ccccc1)NC1CC1	-6%	-2	0.1%	-5%
COc1ccccc1NS(=O)(=O)c1ccc(C)c(NC(=O)NC2CCCCC2)c1	0%	6	0.3%	9%
Cc1ccc(-c2nc3ncccc3o2)cc1NC(=O)c1cc2ccccc2o1	0%	3	0.2%	1%
COc1ccc(CN2C(=O)c3ccccc3C2=O)cc1C(=O)O	-3%	.	0.8%	0%
CC(C)(C)C(=O)c1cn(CC(=O)NCc2ccc3c(c2)OCO3)c2ccccc12	3%	-11	-2.0%	-29%
CC(C)(Oc1ccc(Cl)cc1)C(=O)OCc1nc2ccsc2c(=O)[nH]1	-14%	.	-1.5%	.
CCN(c1ccccc1)S(=O)(=O)c1ccc(NC(=O)C(C)(C)C)cc1	3%	-6	-4.5%	1%
Cc1noc(C)c1C(=O)Nc1nc(-c2cc(F)ccc2F)cs1	-6%	.	-3.2%	.
COc1cccc2c1C(=O)c1c(O)c3c(c(O)c1C2=O)CC(O)(C(C)=O)CC3OC1CC(N(C)C)C(O)C(C)O1 (centres undefined)	1%	.	16%	.
CCOC(=O)C1CSC(CC(=O)Nc2ccc(OC(F)(F)F)cc2)C(=O)N1 (centres undefined)	8%	-2	0.1%	-2%
Cc1nnc(SCCn2c(N3CCCCCC3)nc3c2c(=O)[nH]c(=O)n3C)s1	-2%	-1	-1.7%	-17%
CC(=O)c1ccccc1OCc1ccc(C(=O)c2ccccc2)cc1	-3%	.	0.9%	7%
CCCCN(C(=O)c1ccc2c(c1)NC(=O)CS2)c1ccccc1	-4%	.	-2.0%	.
C=CCOC(=O)C1=C(C)OC(N)=C(C#N)C1c1c(C)nn(-c2ccccc2)c1Cl (centres undefined)	-1%	-1	-0.3%	-10%
CCOC(=O)C(NC(=O)c1ccccc1)(Nc1cc(C)on1)C(F)(F)F (centres undefined)	-1%	-4	-2.3%	-3%
CCN(CC)c1ccc(C=C(c2nnnn2-c2ccc(C)cc2)c2nnnn2-c2ccc(C)cc2)cc1	?	-3	?	-8%
COc1ccc(S(=O)(=O)N2CCCCC2)cc1NC(=O)[C@@H]1CCCN1C(=O)c1cccs1	25%	.	2.0%	.
CCS(=O)(=O)C1=NN2C(=N)/C(=C\c3ccc(OC(=O)c4ccco4)c(OC)c3)C(=O)N=C2S1	?	.	?	-3%
COc1ccc(C2N(c3cc(C)on3)C(=O)C3CCCN32)cc1OC (centres undefined)	10%	1	4.4%	1%
COc1ccc(/C=C/C(=O)Nc2ccc3nc4n(c(=O)c3c2)CCCC4)cc1	-17%	9	?	6%
NC(=O)COC(=O)CNC(=O)c1ccc(Cl)cc1	0%	-5	-0.5%	-9%
O=C(CNC(=O)c1cccs1)N/N=C/c1c(F)cccc1Cl	-8%	.	-0.3%	-28%
O=C(c1ccc(CS(=O)(=O)Cc2ccc(Cl)cc2)o1)N1CCCC1	-5%	-6	4.5%	-6%
CCC(=O)N1CCC2(CC1)Oc1ccc(F)cc1C(=O)C21CC(c2ccccc2)=NO1 (centres undefined)	8%	-9	1.7%	13%
CC1(C)Cc2c(sc(NC(=O)C(=O)N3CCN(CCO)CC3)c2C(N)=O)CO1	-5%	.	-0.2%	0%
CC(C)n1c(SCc2cc(=O)[nH]c3ccccc23)nc2c1c(=O)n(C)c(=O)n2C	-1%	-3	3.2%	-11%
CCOc1ccc(NC(=O)CCN2C(=O)c3ccccc3C2=O)cc1	4%	.	-1.6%	-3%
CCC(CC)NC(=O)Cc1ccc(F)cc1	7%	6	-14%	-1%
COc1cc(C(Nc2ccc3c(c2)OCO3)C(=O)NC2CCCCC2)cc(OC)c1OC (centres undefined)	-1%	-9	-2.9%	-18%
Cc1cc(C)c2c(N)c(C(=O)NN3CC(=O)N(c4ccccc4F)CC3=O)sc2n1	-10%	6	-1.8%	1%
O=C(NCCc1ccccc1F)C1CCC(=O)N(Cc2ccc(Cl)cc2)C1 (centres undefined)	-10%	.	2.7%	0%
CSc1ccc(CNC(=O)c2ccc(NC(=O)C3=CSCCO3)cc2)cc1	8%	.	-2.3%	-10%
CCOC(=O)C1=CN(Cc2cccc(-c3cccnc3)c2)S(=O)(=O)N(CC)C1C (centres undefined)	0%	.	-2.8%	.
Fc1ccccc1CNc1ncnc2sccc12	-9%	.	-4.9%	23%
Cc1ccccc1N1CCN(Cc2c(C#N)c3ccccc3n2C)CC1	-5%	2	-1.2%	-4%
CCOc1ccc(NC(=O)CN(C)C(=O)C(C)Oc2ccc(Cl)cc2)cc1OCC (centres undefined)	5%	.	1.2%	.
COC(=O)C1C(=O)NC(SC)=C(C#N)C1c1ccccc1F (centres undefined)	-7%	6	-1.5%	-4%
Cc1cccc(NC(=O)c2cc(S(=O)(=O)N3CCCC3)cn2C)c1	2%	.	-5.0%	0%
CCCSc1nnc2nc3c(nn12)c1ccccc1n3C	11%	4	1.1%	-3%
Cc1nc(Nc2cnc(/C=C/c3cc(C(=O)Nc4cccc(C(F)(F)F)c4)ccc3C)cn2)cc(N2CCNCC2)n1	?	.	?	?

Some of these compounds in order of SMILES length, descending.
SMILES	Rango dissoc inh	GLA inh pH 4.5	Rango complex inh	miR-21 FLuc
CCS(=O)(=O)C1=NN2C(=N)/C(=C\c3ccc(OC(=O)c4ccco4)c(OC)c3)C(=O)N=C2S1	?	.	?	-3%
COc1ccccc1NS(=O)(=O)c1ccc(C)c(NC(=O)NC2CCCCC2)c1	0%	6	0.3%	9%
CC(C)(Oc1ccc(Cl)cc1)C(=O)OCc1nc2ccsc2c(=O)[nH]1	-14%	.	-1.5%	.
COc1ccc(C2N(c3cc(C)on3)C(=O)C3CCCN32)cc1OC (centres undefined)	10%	1	4.4%	1%

The list goes on:
SMILES	Rango dissoc inh	GLA inh pH 4.5	Rango complex inh	miR-21 FLuc
COc1ccccc1C(=O)c1c(C)c(CCC#N)n2ccccc12	14%	.	3.6%	-7%
Cc1ccccc1NC(=O)Nc1ccccc1C(N)=O	15%	6	8.1%	-2%
Cc1ccn2c(C=O)c(-c3ccc(F)cc3)c(C=O)c2c1	-14%	-17	-7.4%	-14%
C#CC(C)(CC)NC(=O)Cn1nnc(-c2cccc(C(F)(F)F)c2)n1 (centres undefined)	1%	-13	-3.3%	3%
Cc1noc(/C=C/N(C)C)c1S(=O)(=O)N1CCCC(C(=O)Nc2ccc(F)cc2F)C1 (centres undefined)	?	.	?	5%&-2%
Cc1ccc(N(C(=O)c2csnn2)C(C(=O)NC(C)(C)C)c2cccs2)cc1 (centres undefined)	14%	4	-2.1%	-1%
O=C(c1cccs1)N1CCN(c2ncccn2)CC1	-13%	3	6.6%	-3%
CSC1=NCCN1C(=O)c1ccco1	13%	-6	0.4%	-3%
CCCn1c(SCC(=O)c2cc(C)c(C)cc2C)n[nH]c1=O	2%	5	4.9%	7%
Cc1nc(C(C)N(C)Cc2nc(-c3ccc4c(c3)OCO4)no2)c(C)s1 (centres undefined)	0%	2	1.1%	-36%
Cc1ccc(CN(C(=O)c2ccco2)C(C(=O)NC2CCCC2)c2cccnc2)cc1 (centres undefined)	6%	9	1.9%	-2%
CC(C)C(NS(=O)(=O)c1cccc2nsnc12)C(=O)NC1CCCCC1 (centres undefined)	-9%	.	-3.7%	2%
CNC(=S)N/N=C/c1cn(Cc2ccc(F)cc2)c2ccccc12	12%	-2	3.5%	-5%
O=C(COc1ccccc1C(=O)O)Nc1nc2ccc([N+](=O)[O-])cc2s1	-12%	-15	?	-17%
COc1ccccc1C(=O)NC(=O)COC(=O)c1cccc(C)c1O	-9%	.	-0.5%	.
COCC(O)CSc1c([N+](=O)[O-])nc(C)n1Cc1ccc(OC)c([N+](=O)[O-])c1 (centres undefined)	0%	-1	-1.4%	-15%
CCN1CCCC1CNC(=O)c1cn(C)c2ccc(S(=O)(=O)N3CCCCCC3)cc2c1=O (centres undefined)	1%	-3	-2.0%	-13%
Cc1cc(C)c(NC(=O)Cn2nnc(C(=O)NCCc3ccccc3)c2N)c(C)c1	12%	.	3.4%	12%
COCCCNC(=O)Cn1cnc2sc(C)c(S(=O)(=O)N3CCN(c4ccccc4OC)CC3)c2c1=O	10%	.	0.0%	-2%&-1%
COc1cc2c(cc1OC)C(NNC(=O)c1ccc(Br)o1)=NC(C)(C)C2	12%	.	-2.6%	9%
CN1CCN(C/C(=C2/N=C(c3ccccc3)OC2=O)N(C)C)CC1	0%	-29	-1.5%	-13%
COc1ccccc1NC(=O)CNC(=O)c1ccc([N+](=O)[O-])cc1	-5%	5	-1.8%	1%
CCn1c(SC(C)C(=O)OC)nnc1-c1c[nH]c2ccccc12 (centres undefined)	-6%	-1	0.2%	-12%
COc1ccc(OC)c(S(=O)(=O)NCCc2ccccc2)c1	4%	-8	-0.2%	-21%
CC1CN(CCOc2cccc(Oc3ccccc3)c2)CC(C)O1 (centres undefined)	-3%	.	-2.9%	-2%
Cc1ccc(-c2[nH]c(-c3ccc(Cl)cc3)nc2SCC(=O)NCC2CCCO2)cc1 (centres undefined)	6%	7	-2.1%	-12%
C[n+]1ccccc1/C=C/c1ccc(C#N)cc1	2%	.	-2.6%	-2%
CCOc1ccc(NC(=O)c2ccc(NC(=O)c3ccc(NC(N)=O)cc3)cc2)cc1	1%	.	-0.2%	.
COC(=O)c1c(NC(=O)Cc2cccs2)sc2c1CCC(C)C2 (centres undefined)	3%	-3	3.6%	-13%
CCCn1c(CNc2ccc(Br)cc2)nc2ccccc21	0%	-9	0.1%	2%

Profiles, quoted from the list. Values in the order: Rango dissoc inh | GLA inh pH 4.5 | Rango complex inh | miR-21 FLuc
C[n+]1ccccc1/C=C/c1ccc(C#N)cc1 reads 2% | . | -2.6% | -2%
CCOc1ccc(NC(=O)c2ccc(NC(=O)c3ccc(NC(N)=O)cc3)cc2)cc1 reads 1% | . | -0.2% | .

Next records
SMILES	Rango dissoc inh	GLA inh pH 4.5	Rango complex inh	miR-21 FLuc
CN(C)c1cccc(C(=O)NCCCSc2ccccc2)c1	16%	.	-2.8%	-30%
Cc1sc2ncnc(NCC(O)c3ccc([N+](=O)[O-])cc3)c2c1C (centres undefined)	7%	.	0.9%	24%
Cc1ccc(NS(=O)(=O)c2ccc(C)c(NC(=O)COc3ccc4ccccc4c3)c2)c(C)c1	-7%	-13	-1.6%	22%
Cc1ccc(C(c2c(O)nc3n(c2=O)CCS3)c2c(O)nc3n(c2=O)CCS3)cc1	2%	5	0.0%	-3%
Cc1cc(C(=O)Nc2ccc(Cl)cc2)n(-c2ccccc2)n1	12%	.	-0.3%	-14%
